Screening data deposited in PubChem by National Center for Advancing Translational Sciences (NCATS).
D2 agonist: agonists of human D2 dopamine receptor (beta-arrestin) | P14416 | DiscoveRx PathHunter D2 beta-arrestin, luminescence, 90 min; 100% = 57 uM dopamine signal | activation, % (test concentration not listed) | actives 0.084% (n = 360,000) | AID 624465; in the data active = activation above about 40%; inconclusive = about 15% to 40%; inactive = below about 15%; note: compound concentration not given in the record; the text of the record calls up to 30% inactive
Target sequence (P14416 whole entry, looked up): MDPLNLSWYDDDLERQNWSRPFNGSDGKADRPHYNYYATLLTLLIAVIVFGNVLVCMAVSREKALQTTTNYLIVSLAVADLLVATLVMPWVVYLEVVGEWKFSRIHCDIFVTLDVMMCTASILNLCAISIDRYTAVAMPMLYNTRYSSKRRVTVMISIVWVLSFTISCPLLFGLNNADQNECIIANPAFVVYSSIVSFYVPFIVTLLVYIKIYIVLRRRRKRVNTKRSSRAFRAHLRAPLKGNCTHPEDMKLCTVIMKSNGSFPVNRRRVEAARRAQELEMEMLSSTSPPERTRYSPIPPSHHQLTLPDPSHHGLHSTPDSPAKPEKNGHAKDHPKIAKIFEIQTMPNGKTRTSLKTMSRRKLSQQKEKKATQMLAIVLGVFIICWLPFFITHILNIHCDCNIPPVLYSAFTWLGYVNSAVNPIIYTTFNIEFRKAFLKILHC
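DiscoveRx PathHunter D2 beta-arrestin cells (2,100/well) attached overnight, then compound-stimulated 90 min at 37 C in HBSS/10 mM HEPES/0.1% Tween-20 buffer; beta-galactosidase complementation read by luminescence after 1 h at ambient temperature. Dopamine 57 uM final (EC100) as control.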
TRPML1 ag: human mucolipin-1 channel agonism; TRPML1-expressing cells, Ca2+ dye fluorescence, FDSS; host cell line not named in the record; reference of the full effect not given here; activation, % (test concentration not listed); actives 0.12% (n = 410,000); in the data active = activation above about 50%; inconclusive = about 30% to 50%; inactive = below about 30%; note: 0% is about no effect; the text of the record puts the active cut at 80%
Target sequence (Q9GZU1 whole entry, looked up): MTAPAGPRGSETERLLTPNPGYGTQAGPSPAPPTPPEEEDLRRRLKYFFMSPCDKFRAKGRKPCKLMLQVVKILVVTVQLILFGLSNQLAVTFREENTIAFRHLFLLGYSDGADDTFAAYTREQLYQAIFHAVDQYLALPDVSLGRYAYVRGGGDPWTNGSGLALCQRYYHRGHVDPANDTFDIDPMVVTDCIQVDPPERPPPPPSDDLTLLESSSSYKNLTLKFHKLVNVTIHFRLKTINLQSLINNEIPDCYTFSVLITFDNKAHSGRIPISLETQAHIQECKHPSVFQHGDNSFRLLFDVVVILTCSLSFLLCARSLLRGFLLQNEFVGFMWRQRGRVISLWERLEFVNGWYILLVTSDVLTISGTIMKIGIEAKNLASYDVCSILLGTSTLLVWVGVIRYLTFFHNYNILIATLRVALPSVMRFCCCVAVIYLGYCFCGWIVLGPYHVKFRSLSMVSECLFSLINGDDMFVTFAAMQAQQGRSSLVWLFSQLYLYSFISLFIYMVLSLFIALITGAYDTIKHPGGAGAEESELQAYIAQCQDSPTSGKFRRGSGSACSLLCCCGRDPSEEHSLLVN
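Tetracycline-induced TRPML1-DL cells are seeded and incubated overnight before loading with a no-wash Ca2+ dye and quencher. Agonist activity is taken from the 110 s fluorescence read following compound pin-transfer on an FDSS, before EC80 54-4 challenge.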
TRPML1 inh: human mucolipin-1 channel inhibition | Q9GZU1 | TRPML1-inducible cells, Ca2+ dye fluorescence, FDSS; hits give low values; inhibition of EC80 agonist-evoked calcium signal | activity change, negative = inhibition, % (no concentration beside the values) | actives 0.02% (n = 390,000) | AID 624415; in the data active means activity change below about -50%; inconclusive means about -30% to -50%; inactive means above about -30%;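 note: stimulus is agonist 54-4 at its EC80 concentration; % is set by controls: 0 for no effect and ±100 for the full control effect; compound concentration not given in the record; the text of the record puts the active cut at -80%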
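TRPML1-DL cells, Tet-induced overnight (~16 h, 37 °C) at 1,500 cells/well, were loaded with Ca8 no-wash dye plus quencher for 45-90 min at room temperature. Compounds were pinned during FDSS kinetic reading; agonist 54-4 at EC80 (4 uM final) then added.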
PINK1 modulator: changes PINK1 expression. PINK1 immunofluorescence, high-content cytometry, 24 h. Potency, µM (doses to about 76.6 µM), without a hit: at the highest dose activation (PINK1 increase), actives largely listed as activators. actives 0.2% (n = 410,000). AID 624263; active = well fitted activation curve with a large enough effect; inconclusive = small, poorly fitted or top-dose-only effect; inactive = flat fitted curve, though single readings scatter; cell line not stated here;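 note: potency is the fitted concentration of half-maximal effect; % of control where 0% means no effect; nearly all actives have a fitted effect of over 65% in size; a mitochondrial uncoupler was the plate control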
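Readout is PINK1 immunofluorescence, quantified alongside mitochondrial, cell and nuclear markers by laser-scanning microplate cytometry. Cells from a stable line were exposed to compound titrations (5 concentrations) for 24 hours, with CCCP controls.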
D2 potentiator: potentiates the human D2 dopamine receptor allosterically; P14416; AID 624464; potentiation, % (test concentration not listed); actives 0.23% (n = 360,000); DiscoveRx D2 beta-arrestin cells, luminescence, 90 min; 100% = 57 uM dopamine signal; active = potentiation of 50% or more; inconclusive = 30% to 50%; inactive = 30% or less;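 note: compound concentration not given in the record; tested on top of an EC20 dose of dopamine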
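D2 cells co-treated with compound plus 50 nM dopamine (EC20) for 90 min at 37 deg C to detect potentiation. Beta-arrestin recruitment was read as enzyme-fragment luminescence after 1 h at ambient temperature. Full response was set by 57 uM dopamine.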
Six1-Eya2 blk: inhibitors of human Six1/Eya2 interaction. Q15475+O00167. AlphaScreen GST-Six1/His-Eya2 binding, biochemical; hits give low values; control for the full effect not named in the record. activity change, % (concentration not given with the values). actives 0.56% (n = 360,000); in the data active = activity change below about -65%; inconclusive = about -30% to -65%; inactive = above about -30%; note: % is set by controls: 0 for no effect and ±100 for the full control effect
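AlphaScreen with GST-Six1 and His-Eya2 (5X mix: 250 nM and 500 nM), glutathione donor and nickel acceptor beads; buffer 50 mM Tris pH 8.0, 300 mM NaCl, 1 mM TCEP; 1 h at 37 C in the dark.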
Starred values were filed as active, the others as inactive; [ ] = another dose, or the depositor's remark. No enrichment for hits; overall some 1% were active at least once.

Results for Cc1ccc(CNC(=O)C(=O)NCC2OCCN2C(=O)c2ccc(Cl)cc2)cc1 (configuration not stated) ?
D2 agonist: -3.4; TRPML1 ag: -0.8; TRPML1 inh: 7; PINK1 modulator: 4.2%; D2 potentiator: -2; Six1-Eya2 blk: 0

How did CC(C)(C)c1ccccc1OCCCCN1CCCC1 do in these assays?
D2 agonist: 0.9; TRPML1 ag: -0.6; TRPML1 inh: 13; PINK1 modulator: -1.9%; D2 potentiator: -39; Six1-Eya2 blk: -5

How did COc1ccc(NC2CCCN(C(=O)CCc3cn[nH]c3)C2)cc1 (configuration not stated) do in these assays?
D2 agonist: 0.7; TRPML1 ag: -0.2; TRPML1 inh: 2; PINK1 modulator: -1.2%; D2 potentiator: -2; Six1-Eya2 blk: -6

How did COc1cccc(N2CCN(C(=O)CN3C(=O)NC4(CCCC4)C3=O)CC2)c1 do in these assays?
D2 agonist: -2.7; TRPML1 ag: 0.3; TRPML1 inh: -1; PINK1 modulator: 12%; D2 potentiator: -4; Six1-Eya2 blk: -1

How did CC1CCc2onc(C(=O)N3CCN(c4cccc(C(F)(F)F)c4)CC3)c2C1 (configuration not stated) do in these assays?
TRPML1 ag: -0.5; TRPML1 inh: -25; PINK1 modulator: inconclusive

What do the screens show for `O=C(Nc1cccc(-c2nc3cccnc3s2)c1)c1cccnc1Cl`?
D2 agonist: 7.2; TRPML1 ag: 0.7; TRPML1 inh: -2; PINK1 modulator: -0.6%; D2 potentiator: 6; Six1-Eya2 blk: -8

How did Cc1cc(-c2n[nH]c(=S)n2/N=C/c2cccc([N+](=O)[O-])c2)n[nH]1 do in these assays?
D2 agonist: -1.7; TRPML1 ag: -0.6; TRPML1 inh: 2; PINK1 modulator: -1.8%; D2 potentiator: 6; Six1-Eya2 blk: -26

How did COc1ccc(CNC(=S)N2CCN(Cc3ccccc3)CC2)cc1 do in these assays?
D2 agonist: -5.0; TRPML1 ag: 0.0; TRPML1 inh: 7; PINK1 modulator: 1.8%; D2 potentiator: -19; Six1-Eya2 blk: -13

What do the screens show for `Cc1ccc(C(=O)N2CCCC(N3CCN(c4cccc(C(F)(F)F)c4)CC3)C2)s1` (configuration not stated)?
D2 agonist: 6.4; TRPML1 ag: 3.6; TRPML1 inh: 35; PINK1 modulator: 0.3%; D2 potentiator: -18; Six1-Eya2 blk: -15

Results for O=C(Nc1ccc(Cl)cc1)N1CCc2ccccc2C1 ?
D2 agonist: -2.2; TRPML1 ag: 1.9; TRPML1 inh: 20; PINK1 modulator: -0.4%; D2 potentiator: -11; Six1-Eya2 blk: -1

How did Cc1ccccc1NC(=O)CN1CCC(n2nnc3ccccc32)CC1 do in these assays?
D2 agonist: -0.2; TRPML1 ag: 0.0; TRPML1 inh: -11; PINK1 modulator: -3.5%; D2 potentiator: -34; Six1-Eya2 blk: 3

How did CC(=O)Nc1ccc(NC(=O)CSc2nc(=O)n(CCCN3CCOCC3)c3c2CCC3)cc1 do in these assays?
D2 agonist: -2.8; TRPML1 ag: -0.3; TRPML1 inh: -5; PINK1 modulator: 0.7%; D2 potentiator: -11; Six1-Eya2 blk: 2

How did O=C(Cn1nnc2c(cnn2-c2ccc(F)cc2)c1=O)Nc1ccccc1C(F)(F)F do in these assays?
D2 agonist: -6.3; TRPML1 ag: 1.4; TRPML1 inh: 10; PINK1 modulator: 0.7%; D2 potentiator: -4; Six1-Eya2 blk: 7

Results for Cc1ccnc2nc(C(=O)OCC(=O)N3CCc4ccccc43)nn12 ?
D2 agonist: 0.2; TRPML1 ag: -0.3; TRPML1 inh: -6; PINK1 modulator: -0.7%; D2 potentiator: -8; Six1-Eya2 blk: 2

What do the screens show for `CCCCn1c(N)c(N(CCC(C)C)C(=O)C2CC(=O)N(c3ccc4c(c3)OCCO4)C2)c(=O)[nH]c1=O` (configuration not stated)?
D2 agonist: -7.5; TRPML1 ag: -0.3; TRPML1 inh: 0; PINK1 modulator: 0.0%; D2 potentiator: -4; Six1-Eya2 blk: 6

Results for Cc1[nH]c(C)c(S(=O)(=O)NCCc2ccc(S(N)(=O)=O)cc2)c1C(=O)N1CCCC1 ?
D2 agonist: 0.8; TRPML1 ag: 0.2; TRPML1 inh: 4; PINK1 modulator: -0.9%; D2 potentiator: 3; Six1-Eya2 blk: 4

How did CC(=O)c1c(C)oc2c1cc(NS(=O)(=O)c1ccc(Cl)c(C)c1)c1ccccc12 do in these assays?
TRPML1 ag: 3.9; TRPML1 inh: -6; PINK1 modulator: 7.6%

Results for Fc1cc2[nH]c(=S)[nH]c2cc1Cl ?
D2 agonist: 3.7; TRPML1 ag: -1.2; TRPML1 inh: 7; PINK1 modulator: -1.5%; D2 potentiator: -6; Six1-Eya2 blk: 2

Results for CCCC[C@@H]1C[C@H]1[C@@H](NC(=O)c1ccco1)c1ccccc1C(F)(F)F ?
D2 agonist: 1.4; TRPML1 ag: -0.5; TRPML1 inh: 28; PINK1 modulator: 2.3%; D2 potentiator: -3; Six1-Eya2 blk: 0

What do the screens show for `NC(N)=Nc1nc2ccc(Cl)cc2c(=O)[nH]1`?
D2 agonist: -0.4; TRPML1 ag: 0.5; TRPML1 inh: 36; PINK1 modulator: -2.0%; D2 potentiator: 6; Six1-Eya2 blk: 13

Results for CCN(Cc1ccc(C#CCCO)cc1)CC1CCCN(CCc2cccc(OC)c2)C1 (configuration not stated) ?
D2 agonist: -2.3; TRPML1 ag: 0.6; TRPML1 inh: -5; PINK1 modulator: 0.9%; D2 potentiator: -3; Six1-Eya2 blk: -14

Results for O=C(CSc1n[nH]c(-c2cccnc2)n1)OC1CCCCC1 ?
D2 agonist: -4.2; TRPML1 ag: 0.6; TRPML1 inh: 15; PINK1 modulator: 1.1%; D2 potentiator: -6; Six1-Eya2 blk: 21

How did CCc1cccc2c(-c3ccccc3)nc(SCC(=O)Nc3ccccc3OC)nc12 do in these assays?
TRPML1 ag: 0.8; TRPML1 inh: -14; PINK1 modulator: 2.3%

Results for C=CCNc1cnn(-c2ccccc2)c(=O)c1Cl ?
D2 agonist: 1.1; TRPML1 ag: 2.7; TRPML1 inh: 8; PINK1 modulator: -1.6%; D2 potentiator: -4; Six1-Eya2 blk: 34

What do the screens show for `COc1ccc(C(=O)Nc2nnc(S(=O)(=O)N(C)c3ccc(Cl)cc3)s2)cc1OC`?
TRPML1 ag: -0.6; TRPML1 inh: 0; PINK1 modulator: 1.4%

How did CCOC(=O)C1CCN(C(=O)c2cc3c(s2)-c2ccccc2OC3)CC1 do in these assays?
D2 agonist: -1.0; TRPML1 ag: 1.1; TRPML1 inh: -4; PINK1 modulator: 3.3%; D2 potentiator: -5; Six1-Eya2 blk: 7

How did COc1ccccc1NC(=O)C1=C(C)Nc2nnnn2C1c1ccccn1 (configuration not stated) do in these assays?
D2 agonist: -3.2; TRPML1 ag: -0.1; TRPML1 inh: -1; PINK1 modulator: 0.3%; D2 potentiator: -21; Six1-Eya2 blk: 4

Results for O=C(COc1ccc2c3c(c(=O)oc2c1)CCC3)c1ccc2c(c1)OCO2 ?
D2 agonist: 0.5; TRPML1 ag: -0.1; TRPML1 inh: 4; PINK1 modulator: 5.2%[38.3 µM]; D2 potentiator: 11; Six1-Eya2 blk: 3

Results for O=C(COC(=O)c1ccc(S(=O)(=O)N2CCCC2)cc1)Nc1ccc(Cl)cc1 ?
D2 agonist: -1.1; TRPML1 ag: 0.7; TRPML1 inh: -6; PINK1 modulator: 3.3%; D2 potentiator: -3; Six1-Eya2 blk: 8

What do the screens show for `O=c1c(N2CCOCC2)nsn1Cc1ccccc1`?
D2 agonist: -2.4; TRPML1 ag: -0.3; TRPML1 inh: 13; PINK1 modulator: -0.1%; D2 potentiator: -6; Six1-Eya2 blk: 5

What do the screens show for `COCCn1cnc2c1c(=O)n(CC(=O)NCC(F)(F)F)c(=O)n2Cc1ccccc1`?
D2 agonist: -0.7; TRPML1 ag: 0.6; TRPML1 inh: -6; PINK1 modulator: 0.6%; D2 potentiator: 0; Six1-Eya2 blk: -1

What do the screens show for `Cc1ccc(N(C)S(=O)(=O)c2ccc3[nH]c4c(c3c2)CCCC4)cc1`?
TRPML1 ag: 6.3; TRPML1 inh: 60; PINK1 modulator: inconclusive

What do the screens show for `O=C(O)c1cc(O)c2c(c1)C(=O)c1cccc(O)c1C2=O`?
D2 agonist: 0.1; TRPML1 ag: 1.1; TRPML1 inh: -1; PINK1 modulator: -0.3%; D2 potentiator: 7; Six1-Eya2 blk: -73*

Results for CCCSc1nsc(NC(=O)CC)n1 ?
D2 agonist: -0.6; TRPML1 ag: 1.7; TRPML1 inh: 31; PINK1 modulator: -1.0%; D2 potentiator: -6; Six1-Eya2 blk: 9

What do the screens show for `CC(=O)NC(c1ccccc1)c1nc(-c2cnc3ccccc3c2)cs1` (configuration not stated)?
D2 agonist: -3.0; TRPML1 ag: -0.3; PINK1 modulator: 0.9%; D2 potentiator: -2; Six1-Eya2 blk: -7

Results for COc1ccc(-c2nc3ccc(C)cn3c2Cc2ccccc2)cc1OC ?
D2 agonist: -2.3; TRPML1 ag: 1.1; TRPML1 inh: 48; PINK1 modulator: 1.3%; D2 potentiator: -12; Six1-Eya2 blk: -15

Results for COc1ccc(C2CC(c3c(-c4ccccc4)c4cc(Cl)ccc4[nH]c3=O)=NN2S(C)(=O)=O)cc1OC (configuration not stated) ?
D2 agonist: -2.6; TRPML1 ag: 0.4; TRPML1 inh: 4; PINK1 modulator: 2.4%; D2 potentiator: -8; Six1-Eya2 blk: 18

How did CNc1nc(N(C)C)nc(N(C)C)n1 do in these assays?
D2 agonist: 0.8; TRPML1 ag: -0.2; TRPML1 inh: 34; PINK1 modulator: -0.2%; D2 potentiator: -16; Six1-Eya2 blk: 1

Results for COc1ccc(NC(=O)c2ccc(-c3csc(C)n3)cc2)cc1 ?
D2 agonist: 8.6; TRPML1 ag: 0.1; TRPML1 inh: -2; PINK1 modulator: 11%; D2 potentiator: -3; Six1-Eya2 blk: 1

4 structures from above, sorted by count of non-hydrogen atoms, high to low:
What do the screens show for `COCCn1cnc2c1c(=O)n(CC(=O)NCC(F)(F)F)c(=O)n2Cc1ccccc1`?
D2 agonist: -0.7; TRPML1 ag: 0.6; TRPML1 inh: -6; PINK1 modulator: 0.6%; D2 potentiator: 0; Six1-Eya2 blk: -1

What do the screens show for `CC(=O)NC(c1ccccc1)c1nc(-c2cnc3ccccc3c2)cs1` (configuration not stated)?
D2 agonist: -3.0; TRPML1 ag: -0.3; PINK1 modulator: 0.9%; D2 potentiator: -2; Six1-Eya2 blk: -7

What do the screens show for `O=C(O)c1cc(O)c2c(c1)C(=O)c1cccc(O)c1C2=O`?
D2 agonist: 0.1; TRPML1 ag: 1.1; TRPML1 inh: -1; PINK1 modulator: -0.3%; D2 potentiator: 7; Six1-Eya2 blk: -73*

Results for CCCSc1nsc(NC(=O)CC)n1 ?
D2 agonist: -0.6; TRPML1 ag: 1.7; TRPML1 inh: 31; PINK1 modulator: -1.0%; D2 potentiator: -6; Six1-Eya2 blk: 9
